AF4-AF9 inh: blocks AF4 peptide binding to human AF9 | AlphaScreen, biotin-AF4 peptide binding to FLAG-AF9 | inhibition, % at 10 µM | P42568 | 350,000 compounds, 0.47% hits;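 active = every replicate reaching a set inhibition limit, whatever the replicate mean, cut at about 25% in these data; inconclusive = mean inhibition reaches that limit but some replicates miss it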;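 also: 0% = plate neutral control median and 100% = total signal loss; the record names both 10 and 1 µM as test concentration; the first replicate is given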
Target sequence (P42568 whole entry, looked up): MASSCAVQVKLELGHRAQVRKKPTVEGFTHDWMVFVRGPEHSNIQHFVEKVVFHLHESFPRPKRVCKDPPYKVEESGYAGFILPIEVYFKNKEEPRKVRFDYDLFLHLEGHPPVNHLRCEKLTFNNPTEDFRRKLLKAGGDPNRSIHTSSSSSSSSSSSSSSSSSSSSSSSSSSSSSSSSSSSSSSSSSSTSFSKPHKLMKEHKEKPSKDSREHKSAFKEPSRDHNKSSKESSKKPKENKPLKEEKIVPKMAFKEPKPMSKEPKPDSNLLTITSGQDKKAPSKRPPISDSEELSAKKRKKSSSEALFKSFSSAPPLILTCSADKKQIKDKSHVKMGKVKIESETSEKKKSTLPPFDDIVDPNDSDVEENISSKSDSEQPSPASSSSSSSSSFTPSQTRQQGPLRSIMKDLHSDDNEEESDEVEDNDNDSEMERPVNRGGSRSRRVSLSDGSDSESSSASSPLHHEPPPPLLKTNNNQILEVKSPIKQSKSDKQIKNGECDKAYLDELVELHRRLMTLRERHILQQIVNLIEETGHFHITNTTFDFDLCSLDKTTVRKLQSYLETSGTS
Vif TR-FRET: inhibitors of Vif binding to APOBEC3G peptide, primary screen, biochemical, TR-FRET, GST-Vif 1-94, biotin-A3G peptide, dose response retest (AID 1117319); one-dose inhibition, %; IC50 in µM for titrated hits; TR-FRET GST-Vif / biotin-A3G peptide binding; higher % means a stronger effect; test concentration not given here; strong numbers were not always called active; 260,000 compounds, 0.57% hits;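 active = above the screen mean plus three standard deviations and confirmed in dose response; inconclusive = results disagree or hit not tested in dose response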;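 also: Vif residues 1-94 fused to GST binding biotinylated APOBEC3G peptide 110-148; 0% = full assay without inhibitor and 100% = GST in place of GST-Vif; retest series ran down from 100 µM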
HNF4A DNA FP: change in binding of human HNF4 alpha to DNA | activity change, % at 10 µM | P41235 | 360,000 compounds, 0.3% hits | HNF4a-FITC DNA binding, fluorescence polarization, 1 h | AID 1224865; in the data active = activity change above about 30%, passing the limit was not always enough;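 also: controls were the assay level and a saturating level of protein; the project sought stronger binding though the title names inhibitors; some compounds called inactive have numbers as strong as hits; positive values seem to mean higher polarization but the record does not say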
Ecoli growth: inhibitors of Escherichia coli growth. OD600, 23 h; hits give low values. OD600 absorbance (concentration not given with the values). 330,000 compounds, 0.21% hits. AID 1053175;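 active = OD600 absorbance below the run mean of sample wells minus 3.6 SD, in any replicate, cut at about 0.56 in these data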;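 also: stock transfer was 300 nL into about 60 µL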
Ecoli rRNA inh: inhibits bacterial ribosomal RNA function over humanized ribosomes. 350,000 compounds, 1.6% hits. E. coli WT GFP vs humanized-ribosome RFP mutants, fluorescence, 24 h; hits give low values; DMSO median 0, no signal -100. GFP signal change (wild-type ribosome), % (concentration not given with the values);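 active = significant combined selectivity score with lowered wild-type GFP, culture density cut under 30%, mutant RFP and density less affected; inactive = any of these conditions unmet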; also: one replicate is shown; some compounds called inactive have numbers as strong as hits
FGF22 binding: FGF22 (human) thermal shift binding; Q9HCT0; recombinant FGF22 thermal shift, SYPRO orange fluorescence; percent of sucrose octasulfate shift, DMSO zero; calls only at 9.99 µM; 340,000 compounds, 1.5% hits; AID 651658;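 active = melting point raised past a set limit in the mean and every replicate; inconclusive = no clear call; three in four hits are not shown here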
Target sequence (Q9HCT0 whole entry, looked up): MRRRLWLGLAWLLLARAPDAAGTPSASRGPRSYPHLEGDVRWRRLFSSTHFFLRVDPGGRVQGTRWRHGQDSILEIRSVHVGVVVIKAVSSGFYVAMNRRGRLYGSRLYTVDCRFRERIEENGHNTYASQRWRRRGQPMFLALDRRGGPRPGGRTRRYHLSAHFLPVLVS
ALR H2O2 inh: blocks human ALR sulfhydryl oxidase activity | inhibition, % (concentration not given with the values) | 290,000 compounds, 3.8% hits | P55789 | purified ALR, DTT oxidation, H2O2 HRP-luminol luminescence | AID 485317;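 active = mean and each replicate at 75% or more; inconclusive = only one of the two met; inactive = neither met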;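 also: stock transfer was 7.5 nL into about 7.5 µL; 0% = neutral wells and 100% = wells with inactivated enzyme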
Target sequence (P55789 whole entry, looked up): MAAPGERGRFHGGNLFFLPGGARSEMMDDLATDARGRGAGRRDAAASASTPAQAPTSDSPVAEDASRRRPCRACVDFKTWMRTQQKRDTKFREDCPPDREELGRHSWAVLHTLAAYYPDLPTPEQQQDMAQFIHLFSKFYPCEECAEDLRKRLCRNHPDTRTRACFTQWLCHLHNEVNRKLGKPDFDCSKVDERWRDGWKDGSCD
Ecoli rRNA inh OD600: second read-out of Ecoli rRNA inh, no call of its own (marks repeat the call); OD600 change, %; measured here: OD600 growth;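 optical density of the mix in the first replicate; 0 = DMSO median and -100 = no signal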
Ecoli rRNA inh RFP: further read-out of Ecoli rRNA inh, marked with its call; RFP signal change, %; measured here: RFP humanized mutant strains;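 first replicate; 0 = DMSO median and -100 = no signal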
The depositor's hits bear a star; i = inactive; ? = inconclusive; / = no result given; & = joins results of further samples.

Sample of the layout (3 entries):
AF4-AF9 inh	Vif TR-FRET	HNF4A DNA FP	Ecoli growth	Ecoli rRNA inh	Ecoli rRNA inh OD600	Ecoli rRNA inh RFP	FGF22 binding	ALR H2O2 inh	Compound
-6.0	/	1.6	0.66	20	14	-3.3	i	/	Cc1ncc([N+](=O)[O-])n1CC(=O)NC(C)(C)C
/	3%	1.1	0.73	/	/	/	/	-6	COc1ccc(CNC(=O)C(c2ccc(C)o2)N(Cc2cccs2)C(=O)Cc2cccs2)cc1 (centres undefined)
1.0	/	2.3	0.65	10	0	-2.8	i	-3	CCN(CC)C(=O)c1ccc(Cn2cc([N+](=O)[O-])cn2)o1

The listing, from the first entry:
AF4-AF9 inh	Vif TR-FRET	HNF4A DNA FP	Ecoli growth	Ecoli rRNA inh	Ecoli rRNA inh OD600	Ecoli rRNA inh RFP	FGF22 binding	ALR H2O2 inh	Compound
-6.0	/	1.6	0.66	20	14	-3.3	i	/	Cc1ncc([N+](=O)[O-])n1CC(=O)NC(C)(C)C
/	3%	1.1	0.73	/	/	/	/	-6	COc1ccc(CNC(=O)C(c2ccc(C)o2)N(Cc2cccs2)C(=O)Cc2cccs2)cc1 (centres undefined)
1.0	/	2.3	0.65	10	0	-2.8	i	-3	CCN(CC)C(=O)c1ccc(Cn2cc([N+](=O)[O-])cn2)o1
/	-1%	2.9	0.72	/	/	/	/	3	Cc1cc(NS(=O)(=O)c2ccc(NC(=O)COc3ccc(Cl)cc3)cc2)no1
-0.2	/	/	/	0	-4	-2.1	i	/	Cc1cccc(S(=O)(=O)N[C@@H]2CC[C@@H](CCNC(=O)CCN3CCCCC3)O[C@H]2CO)c1
9.0	/	/	/	5	8	2.6	i	/	CC(=O)N1[C@H](CNC(=O)CN(C)C)[C@@H](c2ccc(C3=CCCCC3)cc2)[C@@H]1CO
6.8	5%	0.6	0.69	-14	-3	0.4	i	/	CCN1CCCC1CNC(=O)c1ccc(Sc2ccc(F)cc2)c([N+](=O)[O-])c1 (centres undefined)
0.6	/	/	/	0	-3	4.3	i	/	C[C@@H]1CN([C@H](C)CO)C(=O)c2cc(NC(=O)CCC(F)(F)F)ccc2O[C@@H](C)CCCCO[C@@H]1CN(C)Cc1ccc2c(c1)OCO2
5.0	/	1.7	/	-4	-1	-4.7	i	/	NC(N)=NN=Cc1ccnc2ccccc12
13	17%	-5.8	0.65	0	10	4.1	i	/	Oc1cc(CNC2CCCCC2)c(O)cc1CNC1CCCCC1
3.1	5%	1.5	0.69	-4	10	9.7	i	-5	Cc1ccc(NC(=S)N2CCCC(c3ccccc3)=N2)cc1
/	-8%	2.1	0.62	8	-6	-0.8	i	2	O=C(Cc1ccccc1)NNC1CC(=O)N(c2ccc(Oc3ccccc3)cc2)C1=O (centres undefined)
-13	4%	1.9	0.68	4	2	1.0	i	-1	CCCCn1c(N)c(N(CCOC)C(=O)C2CCN(S(=O)(=O)c3ccc(F)cc3)CC2)c(=O)[nH]c1=O
/	8%	5.2	0.65	/	/	/	/	96*	COc1cc(C2NC(=S)NC(C)=C2C(=O)OC(C)C)ccc1OC(C)C (centres undefined)
0.5	/	/	/	-3	-6	0.6	i	/	CN1C(=O)c2cc(NC(=O)C3CC3)ccc2OC[C@H]2O[C@@H](CC(=O)NCC3CCCCC3)CC[C@H]21
/	0%	-1.9	0.7	/	/	/	/	-1	CCCOc1ccc(N2C(=O)CC(N(C(=O)c3ccco3)c3ccc(OCCC)cc3)C2=O)cc1 (centres undefined)
-0.2	/	/	/	-1	2	-3.2	i	/	CN(C)CCCNC(=O)C[C@@H]1C=C[C@H](NC(=O)Cc2cccnc2)[C@H](CO)O1
-1.4	/	2.0	0.7	-9	-10	-0.6	i	-3	CCC1(c2ccc(F)cc2)NC(=O)N(CC(=O)NC2CCCCCC2)C1=O (centres undefined)
-1.2	/	1.1	/	6	8	-1.0	i	/	CCCCCCN1CCN(C2CN(Cc3ccccc3)S(=O)(=O)C2)CC1 (centres undefined)
-20	/	-1.8	0.7	4	10	0.0	i	-3	CCc1ccccc1Nc1nn2c(=O)c3ccc(C(=O)NCc4ccccn4)cc3nc2s1
/	?	4.8	0.73	/	/	/	/	-7	Cc1cc(C)c2c(=O)cc(C(F)F)oc2c1
/	?	-6.0	0.75	/	/	/	/	-21	Cc1ccc(S(=O)(=O)c2nc(-c3ccc(F)cc3)oc2SCC(=O)NCC2CCCO2)cc1 (centres undefined)
-17	11%	-0.8	0.69	8	9	-2.0	i	1	Cc1cc(C(=O)O)c(CSCc2cc(C(=O)O)oc2C)o1
-3.9	3%	-1.8	0.73	-11	-26	16	i	96*	c1csc(CNc2nc(-c3cccs3)nc3ccccc23)c1
2.2	-1%	6.5	0.67	6	8	0.6	i	-2	COc1ccc(CC(=O)Nc2sccc2C#N)cc1S(=O)(=O)N1CCOCC1
/	-6%	6.8	0.71	/	/	/	/	-11	COc1cc2c(cc1OC)CN(c1nc(CN3CCCCC3)nc3sc4c(c13)CCCC4)CC2
2.8	27%	2.1	0.7	-1	-3	-1.6	i	/	COc1cc([N+](=O)[O-])ccc1Nc1nc(C)cc(C)n1
/	22%	4.5	0.74	/	/	/	/	10	CCOC(=O)COc1ccc(S(=O)(=O)N2CCN(c3ccc(F)cc3)CC2)cc1
2.8	/	/	/	-6	-9	1.4	i	/	C[C@H]1CCCCO[C@@H](CN(C)C(=O)Cc2ccccc2)[C@@H](C)CN([C@@H](C)CO)C(=O)c2cc(NS(=O)(=O)c3ccccc3)ccc2O1
-5.0	/	1.7	0.71	5	8	1.6	i	-6	CC1CCN(CCCNC(=O)c2ccc(CS(=O)(=O)Cc3ccc(Cl)cc3)o2)CC1
-1.4	-4%	-1.4	0.62	7	7	-4.0	i	49	CN(C)C(=S)SCC(=O)Nc1cccc(C(F)(F)F)c1
/	-2%	-1.4	0.7	/	/	/	/	-6	CCc1nc2ccccc2c(C(=O)OCC(=O)NCCCN2CCCC2=O)c1C
/	-4%&5%	5.4	0.64	/	/	/	/	-4	Cc1ccc(CSc2nc3c(c(=O)[nH]2)C(c2ccncc2)C2=C(CCCC2=O)N3)cc1 (centres undefined)
/	-3%	-6.1	0.77	/	/	/	/	9	Cc1cc(C)c(S(=O)(=O)c2ccccc2)c(OC(=O)c2ccc(Cl)cc2Cl)n1
0.6	0%	4.2	0.63	-3	-7	1.7	i	-1	Cc1nc(-c2ccccc2)sc1C(=O)/C=C/N(C)C
1.5	-5%	-0.9	0.65	1	-6	15	i	-5	O=C(NCC(c1ccc(F)cc1)N1CCOCC1)c1ccc(OCc2ccccc2)cc1 (centres undefined)
-0.4	4%	-3.3	0.7	5	6	3.4	i	-1	Cc1cccc(N(CC(=O)N2CCN(C)CC2)S(=O)(=O)c2ccccc2)c1
/	4%	2.9	0.68	/	/	/	/	-3	Cc1cccc(C(=O)N2c3ccccc3C(=O)OC2c2ccc3c(c2)OCO3)c1 (centres undefined)
/	11%	-0.4	0.68	/	/	/	/	-11	COc1ccc(CNC(=O)Cn2c(=O)oc3ccccc32)cc1OC
-4.9	2%	2.8	0.7	1	6	4.6	i	-3	CCCCC(CCC(=O)Nc1ccn(-c2ccccc2)n1)C(=O)O (centres undefined)
-4.5	/	3.2	0.63	-9	-11	-1.3	i	-7	COc1ccc(C2NC(c3ccc(OC)cc3)C(C)C(=O)C2C)cc1 (centres undefined)
-3.5	18%	-0.2	/	21	8	2.5	i	-12	C/C(CC(=O)Nc1ccccn1)=N\NC(=O)c1cnccn1
6.9	/	-1.6	0.64	1	-4	-14	i	-11	COc1cc(Br)c(-c2sc(Nc3ccccc3)n[n+]2-c2ccc(F)cc2)cc1OC
-1.1	-7%	-2.5	0.7	-10	-31	-0.3	i	-7	CCOc1ccc(NC(=S)NC(=O)C2CCCC2)cc1
-2.6	1%	1.6	/	10	12	-0.7	i	-6	COc1cccc(/C=N/c2nc3ccccc3[nH]2)c1O
-2.6	20%	/	0.76	23	19	0.7	/	3	O=c1[nH]c2ccccc2c(O)c1-c1cc2ccccc2oc1=O
0.4	33%	5.7	0.77	1	7	0.2	i	6	COc1cccc(C2N(c3ccc(Cl)cc3)C(=O)C3CCCN32)c1 (centres undefined)
0.2	2%	-0.2	0.72	-6	-11	-4.7	i	-1	Cc1ccc(C(=O)NCCC2=CCCCC2)cc1S(=O)(=O)N1CCOCC1
1.0	/	/	/	-3	-10	-1.5	i	/	C[C@@H]1CN([C@@H](C)CO)C(=O)c2cc(NS(=O)(=O)c3cccs3)ccc2O[C@@H](C)CCCCO[C@H]1CN(C)S(=O)(=O)c1cccs1
6.0	-1%	3.2	0.69	2	9	2.3	i	-6	O=C(NCc1ccccn1)c1cccc(NS(=O)(=O)c2ccccc2)c1
/	-2%	1.8	0.63	/	/	/	/	-3	O=C(Nc1ccccc1)Nc1ccccc1C(=O)NCc1ccco1
1.1	2%	2.2	0.69	-16	-12	-1.7	i	/	COC(=O)COc1cccc(NC(=O)C(c2ccccc2)c2ccccc2)c1
5.9	/	-1.1	/	-62	-82	-20	i	/	Cc1cccc(C)c1C(O)c1ncc(-c2cccc(C(F)(F)F)c2)[nH]1 (centres undefined)
4.4	/	-0.1	/	-50	-77	-14	i	/	C(=N\Nc1nc2ccccc2[nH]1)/c1ccc2c(c1)OCO2
1.3	/	1.2	/	3	16	-0.1	i	3	CC1(C)O[C@@H](CC(=O)O)[C@]23CO[C@H](C(=O)[C@]4(C)C2CC[C@@]2(C)[C@H](c5ccoc5)OC(=O)C5O[C@]524)[C@@H]13 (some centres undefined)
/	6%	0.4	0.7	/	/	/	/	/	Cc1csc(SCC(=O)c2ccc(S(=O)(=O)N3CCOCC3)cc2)n1
1.6	/	2.2	/	/	/	/	i	15	Cn1c(=O)c2c(nc(N/N=C/c3cccs3)n2C)n(C)c1=O
14	/	1.4	0.69	-11	-6	2.9	i	-3	CCn1c2ccccc2c2cc(NC(=O)CN(C)CC(=O)Nc3ccc(N4CCOCC4)cc3)ccc21
/	0%	-5.2	0.67	/	/	/	/	-19	O=C(O)CCC(=O)NC1CCCCCCC1
/	0%	-0.9	0.63	/	/	/	/	1	CCOCC(=O)Nc1cc(C(=O)Nc2ccccc2)ccc1Cl

Following part
AF4-AF9 inh	Vif TR-FRET	HNF4A DNA FP	Ecoli growth	Ecoli rRNA inh	Ecoli rRNA inh OD600	Ecoli rRNA inh RFP	FGF22 binding	ALR H2O2 inh	Compound
-2.0	/	1.3	/	6	-27	-3.9	i	/	F[B-](F)(F)COCc1ccccc1Br
0.6	/	/	/	-2	-11	-1.3	i	/	Cc1noc(C)c1S(=O)(=O)Nc1ccc2c(c1)C(=O)N([C@@H](C)CO)C[C@H](C)[C@@H](CN(C)C(=O)CCC(F)(F)F)OCCCC[C@H](C)O2
/	5%	1.2	0.68	/	/	/	/	-3	CCOC(=O)Cc1nnc(NC(=O)CSc2ccccc2)s1
5.6	/	-1.3	/	-22*	-10*	-0.6*	i	-3	O=C(COc1ccc(Cl)cc1Cl)N/N=C/c1ccc[nH]1
2.6	-12%	1.2	0.72	-5	9	-5.1	i	-1	O=C(CCNS(=O)(=O)c1ccccc1Cl)N1CCN(c2ccccn2)CC1
/	27%	-1.3	0.73	/	/	/	/	0	CN1C(=S)SC(/[N+]([O-])=C\c2ccccc2)C1(C)C (centres undefined)

Screens from PubChem.

The list is partial, so the mix of outcomes need not match the whole.
